# Vif TR-FRET – inhibitors of Vif binding to APOBEC3G peptide, primary screen, biochemical, TR-FRET, GST-Vif 1-94, biotin-A3G peptide, dose response retest (AID 1117319). Virion infectivity factor (Human immunodeficiency virus type 1 group M subtype B (isolate …. TR-FRET GST-Vif / biotin-A3G peptide binding; higher % means a stronger effect; test concentration not given here; strong numbers were not always called active. inhibition, %; hits with a dose series show IC50 in µM. 0.57% of 260,000 active;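 active means above the screen mean plus three standard deviations and confirmed in dose response; inconclusive means results disagree or hit not tested in dose response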;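 further: Vif residues 1-94 fused to GST binding biotinylated APOBEC3G peptide 110-148; 0% = full assay without inhibitor and 100% = GST in place of GST-Vif; retest series ran down from 100 µM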
# Beta2AR agonist – beta2AR agonists driving receptor internalization, primary screen, cell-based, FAP fluorogen, flow cytometry | response, % (no concentration beside the values) | 0.43% of 340,000 active | Beta-2 adrenergic receptor (Homo sapiens), P07550 | AID 504454, 2011 | Am2.2-beta2AR cells; reference of the scale not given here;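 active means response above a set limit, near 3 SD of response in nonfluorescent compounds, cut at about 42% in these data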;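 further: stock transfer was 100 nL into about 11 µL; a reference agonist was the positive control; negative values mostly stem from fluorescent compounds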
# Target sequence (P07550 whole entry, looked up): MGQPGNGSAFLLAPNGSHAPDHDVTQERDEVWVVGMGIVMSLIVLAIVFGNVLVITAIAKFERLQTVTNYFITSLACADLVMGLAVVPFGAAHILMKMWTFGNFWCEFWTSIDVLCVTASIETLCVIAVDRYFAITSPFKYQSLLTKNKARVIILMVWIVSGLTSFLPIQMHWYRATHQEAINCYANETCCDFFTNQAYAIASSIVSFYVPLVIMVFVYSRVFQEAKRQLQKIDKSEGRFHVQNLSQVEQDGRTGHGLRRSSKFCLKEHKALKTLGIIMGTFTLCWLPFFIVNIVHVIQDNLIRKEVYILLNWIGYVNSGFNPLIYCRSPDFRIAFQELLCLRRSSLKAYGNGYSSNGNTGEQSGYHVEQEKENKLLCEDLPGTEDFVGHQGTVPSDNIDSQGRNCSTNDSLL
# HNF4A DNA FP – change in binding of human HNF4A to DNA, primary screen, biochemical, fluorescence polarization, FITC-DNA. Hepatocyte nuclear factor 4-alpha (Homo sapiens), P41235. activity change, % at 10 µM. 1 h. 0.3% of 360,000 active. AID 1224865, 2016; in the data active means activity change above about 30%, passing the limit was not always enough;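 further: controls were the assay level and a saturating level of protein; the project sought stronger binding though the title names inhibitors; some compounds called inactive have numbers as strong as hits; positive values seem to mean higher polarization but the record does not say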
# Ecoli growth – E. coli growth inhibition, primary screen, OD600 | 0.21% of 330,000 active | Escherichia coli growth, 23 h; hits give low values | OD600 absorbance (concentration not given with the values) | AID 1053175, 2014;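 active means OD600 absorbance below the run mean of sample wells minus 3.6 SD, in any replicate, cut at about 0.56 in these data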;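 further: stock transfer was 300 nL into about 60 µL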
# Bfl-1 A1 inh – caspase 3/7 activation in MEF A1-2A-BIM cells, primary screen, A1 inhibitor project, cell-based, luminescence, HTS; Caspase-Glo 3/7 luminescence, 3 h; percent of clofoctol response, vehicle zero; caspase activation, % (concentration not given with the values); 0.066% of 330,000 active;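 active means over half of replicate activation scores above 10%, or exactly half above 10 with the replicate mean above 10; inconclusive means replicate mean below 10 yet half the replicates above 10; inactive means over half of replicates below 10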;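 further: wells of about 30 µL received 50 nL stock; many hits fall short of the cut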
# LANA-H2A inh – blockers of LANA interaction with H2A/H2B – biochemical, FP readout, HTS, primary screen; AID 2629, 2010; cell-free LANA-H2A/H2B peptide, fluorescence polarization; 0.6% of 320,000 active; inhibition, % (no concentration beside the values); in the data active means inhibition mostly above about 10%, no sharp cut-off; inactive means mostly below about 6.7%;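 further: stock transfer was 7.5 nL into about 10 µL; 0% = median of vehicle wells and 100% = median of positive control wells; one replicate is shown; the record names a cut of 25% in any replicate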
# UCH37 inh – inhibitors of human UCH37 deubiquitinase, primary screen, biochemical, Ub-AMC cleavage, fluorescence. Ubiquitin carboxyl-terminal hydrolase isozyme L5 (Homo sapiens), Q9Y5K5. purified proteasome/UCH37. inhibition, % (no concentration beside the values). 0.33% of 330,000 active. AID 588478, 2011;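 active means mean of two replicates above 20%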;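 further: 0% = compound-free wells with enzyme and 100% = wells lacking proteasome; stock transfer was 100 nL into about 20 µL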
# Target sequence (Q9Y5K5 whole entry, looked up): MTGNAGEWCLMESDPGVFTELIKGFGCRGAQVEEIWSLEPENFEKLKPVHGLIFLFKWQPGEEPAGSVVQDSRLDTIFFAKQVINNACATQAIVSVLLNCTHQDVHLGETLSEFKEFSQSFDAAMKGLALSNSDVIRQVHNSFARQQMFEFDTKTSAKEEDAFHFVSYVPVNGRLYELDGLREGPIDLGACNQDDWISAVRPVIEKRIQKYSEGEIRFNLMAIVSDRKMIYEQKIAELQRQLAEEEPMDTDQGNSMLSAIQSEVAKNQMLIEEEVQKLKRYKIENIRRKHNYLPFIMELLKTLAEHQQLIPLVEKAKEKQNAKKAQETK
#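 system = Proteasome-associated human UCH37 deubiquitinase | amount = 0.15 nM proteasome as dispensed | medium = pH 7.4 Tris-HCl (50 mM) with ovalbumin, ATP-MgCl2, DTT | incubation = 30 min preincubation with enzyme, 25 min cleavage at room temperature | detection = AMC fluorescence 355/460 nm | read-out basis = percent inhibition | controls = no-proteasome and no-compound wells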
# * = called active by the depositor; ? = inconclusive; · = no result given.
SMILES,Vif TR-FRET,Beta2AR agonist,HNF4A DNA FP,Ecoli growth,Bfl-1 A1 inh,LANA-H2A inh,UCH37 inh
Cc1cccc(N/C(N)=N/c2nc(C)cc(=O)[nH]2)c1,·,-4,-2.3,0.69,0.6,-2.2,-2.3
Cc1nc2c(C(=O)N3CCOCC3)cnn2c(C)c1Cc1ccc(Cl)cc1,1%,9,2.1,0.66,0.3,3.0,-93
COc1ccc2c(c1OC)C(=O)OC2n1c(O)c(N=NC(C)=O)c2ccccc21 (stereo unspecified),33%,-6,2.9,0.7,-0.1,7.0,5.1
C=CCN(c1ccccc1)S(=O)(=O)c1cc2c(cc1C)NC(=O)CO2,-5%,2,-0.2,0.73,-0.4,-4.9,4.5
Cc1ccc(C(=O)NNC(=O)c2ccoc2C)s1,2%,-3,0.6,0.69,·,·,2.1
COc1cc(/C=C/C(=O)N(C)CC(=O)Nc2ccccc2Br)cc2c1OCCO2,-6%,1,-6.0,0.71,2.0,1.4,-17
CCOc1ccc(S(=O)(=O)Nc2cccc(C(=O)NCCCN3CCCC3=O)c2)cc1,-11%,-1,-1.4,0.7,0.0,2.8,3.7
COc1ccc(OCC2CCNCC2)cc1,·,-24,-2.7,0.64,0.1,1.1,1.1
Cn1c(-c2ccsc2)c(-c2cccs2)c2cc(-c3ccc4cc[nH]c4c3)ccc21,·,-8,4.3,0.82,0.9,1.8,5.5
COc1cc(C2C(C#N)=C(N)N(c3sc4c(c3C#N)CCCC4)C3=C2C(=O)CC(C)(C)C3)cc(OC)c1OC (stereo unspecified),0%,2,3.8,0.74,1.1,4.2,4.2
CCOC(=O)c1c(N)sc(C(=O)N2CCOCC2)c1C,13%,-5,-0.4,0.73,-0.1,1.2,2.5
O=C(NCC1COc2ccccc2O1)c1ccc(Cl)c(S(=O)(=O)N2CCOCC2)c1 (stereo unspecified),·,2,-6.5,0.66,-0.9,-2.9,1.9
Cc1ccc(SCC(=O)Nc2ccc3c(c2)C(=O)N(C)C3=O)cc1,·,-3,4.7,0.68,-1.3,-1.6,-3.7
N#Cc1cc(S(=O)(=O)c2ccccc2)c(N)[nH]c1=O,?,-1,-2.4,0.72,0.7,3.9,2.1
CCOc1ccc(OCC(=O)Nc2cc3c(cc2C(=O)O)OCCCO3)cc1,2%,0,1.4,·,0.3,2.9,·
CN=C(c1ccc(C)cc1)n1c(=S)nc(-c2ccc(C)cc2)n(C)c1=S,-12%,5,-4.3,0.69,-0.7,-0.4,3.4
O=C(NCc1ccc2c(c1)OCO2)c1cccc(N2CCCC2=O)c1,0%,-7,-2.1,0.67,1.3,-4.1,4.6
CCc1sc(NC(C)=O)nc1-c1ccccc1,-7%,6,2.6,0.68,0.7,0.4,-2.7
CC(C)N(Cc1cn(C)nc1-c1cccc(Cl)c1)CC1CCC(=O)N1 (stereo unspecified),·,-6,-0.8,0.69,0.7,-1.9,4.9
CCCOc1ccc(N2C(=O)CC(N3CCN(c4ccccc4F)CC3)C2=O)cc1 (stereo unspecified),-2%,0,-0.6,0.69,0.0,2.1,-0.1
O=C(Nc1ccc(OCC(=O)N2CCOCC2)cc1)c1ccccc1F,·,14,-0.5,0.6,-0.3,13,1.8
O=C(NCc1ccco1)c1ccc(S(=O)(=O)N2CCCCC2)cc1,·,3,0.8,0.63,0.6,2.1,1.4
O=C(CN1CCN(Cc2ccccc2)CC1)N/N=C/c1c[nH]c2ccccc12,·,4,1.4,·,1.0,1.8,·
COc1cccc(/C=C/C(=O)OC(C)C(=O)Nc2c(C)n(C)n(-c3ccccc3)c2=O)c1 (stereo unspecified),·,-19,-0.7,0.68,0.3,6.1,-38
O=C(Cn1c(SCC(=O)N2CCc3ccccc3C2)nc2ccccc21)NC1CCCC1,-10%,-4,-3.2,0.73,0.0,3.8,6.0
# (next part)
SMILES,Vif TR-FRET,Beta2AR agonist,HNF4A DNA FP,Ecoli growth,Bfl-1 A1 inh,LANA-H2A inh,UCH37 inh
COCC1CCN(Cc2cn(C)nc2-c2cccc(Cl)c2)C1 (stereo unspecified),16%,3,-2.3,0.68,1.3,-0.8,1.6
Cc1ccc(C(=O)Nc2nc3ccc(S(C)(=O)=O)cc3s2)s1,-289%,10,1.0,0.68,-4.3,-2.1,-4.6
O=C1NC(=O)C(c2ccc(Cl)cc2)N1 (stereo unspecified),·,6,0.5,0.67,0.5,0.6,0.9
CSC1=NCCN1C(=O)COc1ccccc1,8%,2,2.2,0.7,-0.6,1.5,0.2
COc1ccc(CCN/C=C2/CC(=O)NC2=O)cc1OC,?,2,3.3,0.76,2.7,1.5,1.7
COC(=O)CCCCCN1C(=O)/C(=C\c2ccncc2)SC1=S,-4%,8,2.1,0.6,0.3,-0.3,3.0
CC[C@H](C)[C@H]1CNC(=S)N1CC1CCN(CCC23CC4CC(CC(C4)C2)C3)CC1,-2%,5,5.2,·,·,·,·
CCn1c(=O)n(CC)c2cc(N3CCCC3)c(NC(=O)c3cc(Cl)ccc3OC)cc21,·,12,0.1,0.61,-0.1,1.7,-0.9
O=C(Nc1ccc(C(=O)N2CCN(c3ccccc3)CC2)cc1)C1=CSCCO1,·,0,-1.2,0.67,0.9,-1.8,4.9
O=C(NNC(=S)Nc1ccccc1)c1ccncc1,-2%,-4,-4.3,0.73,-1.5,6.0,7.1
CCc1ccc(N=C2NC(=O)CS2)cc1,-5%,-4,-1.0,0.64,1.4,2.3,3.2
Cn1c(SCC(=O)N2CCOCC2)nc2cccnc21,4%,1,-0.4,0.71,0.3,-2.0,4.8
CC1=C(C(=O)NCc2ccccc2)C(c2cccnc2)n2ncnc2N1 (stereo unspecified),?,-3,-1.7,0.71,-0.7,3.5,-3.1
CCCCN1C(=O)/C(=C/C=C2/C=Cc3ccccc3N2CC)SC1=S,2%,9,-1.4,0.75,-0.4,4.5,12
CCOC(=O)c1c(-c2ccc(C)o2)csc1NC(=O)CSc1nncs1,-8%,9,-1.2,0.65,-0.1,5.3,5.1
CCOc1cc(NC2CS(=O)(=O)CC2O)c(OCC)cc1NC(=O)c1ccccc1 (stereo unspecified),?,-6,-0.5,0.68,-0.7,1.3,7.0
Cc1ccc(OCCCN(C)C)c(Br)c1,2%,-3,2.2,0.67,0.3,-3.5,-2.5
COc1ccc(CNC(=S)NNC(=O)c2cc3ccccc3o2)cc1,·,7,-1.8,0.67,-0.7,3.3,-0.3
O=c1cc(/C=C/c2c(F)cccc2Cl)[nH]c2ccccc12,10%,1,-2.1,0.7,-2.1,-2.6,-36
COCCn1c(SCC(=O)NC2CCCC2)nnc1-c1ccncc1,·,3,3.4,0.69,0.7,-3.1,1.7
COc1ccc(Cl)cc1NC(=O)NCCCl,-1%,2,2.3,0.73,-0.8,4.9,1.0
COC(=O)CCCC1=CC2=CC(=O)C(C)(OC(=O)c3cccs3)C(=O)C2=CN1Cc1ccc2c(c1)OCO2 (stereo unspecified),?,10,-30,0.67,0.6,2.0,2.1
Cc1onc(-c2ccccc2)c1C(=O)N1CCN(Cc2ccccc2)CC1,·,3,0.1,0.68,0.3,3.4,-0.4
CC(=O)Cc1cc(O)c2ccccc2c1OC(=O)c1ccc(Br)cc1,4%,3,-4.6,0.66,0.1,-3.5,4.5
Cc1ccc(C(=O)CSc2nnc(CNc3ccc(C)cc3C)n2Cc2ccco2)cc1,-3%,-4,-0.3,0.73,0.7,-3.5,3.3

# Individual results from above:
# Under UCH37 inh, O=C1NC(=O)C(c2ccc(Cl)cc2)N1 (stereo unspecified) reads 0.9
# Under LANA-H2A inh, COCCn1c(SCC(=O)NC2CCCC2)nnc1-c1ccncc1 reads -3.1

# Sorted by value in Beta2AR agonist (lowest first): three of the compounds above
smiles	Beta2AR agonist
COc1ccc(OCC2CCNCC2)cc1	-24
COc1cc(/C=C/C(=O)N(C)CC(=O)Nc2ccccc2Br)cc2c1OCCO2	1
CSC1=NCCN1C(=O)COc1ccccc1	2

# Going on with the list.
SMILES,Vif TR-FRET,Beta2AR agonist,HNF4A DNA FP,Ecoli growth,Bfl-1 A1 inh,LANA-H2A inh,UCH37 inh
Cc1sccc1C1C(C#N)=C(N)SC(N)=C1C#N,-2%,·,·,·,0.5,-2.0,·
COc1ccc(CNC(=O)c2cnn3c(C(F)F)cc(C)nc23)cc1OC,-3%,2,1.5,0.69,-0.3,-3.2,2.1
CC(=O)N1c2ccc(S(=O)(=O)NCCC(=O)NC3CCCCCC3)cc2CC1C (stereo unspecified),1%,-1,4.9,0.71,0.7,2.7,-2.4
CCCOc1ccc(C(=O)N2CCCC2C(=O)O)cc1 (stereo unspecified),7%,-3,25,0.71,-0.5,-1.7,0.2
Cc1ccc(S(=O)(=O)N(C)C)cc1NC(=O)COC(=O)c1sc2cc(Cl)ccc2c1Cl,6%,-6,0.7,0.71,-0.3,-6.6,5.0
O=C(Oc1ccc2c(c1)OCC2=O)c1ccccc1,7%,6,1.2,0.71,-0.6,-8.9,3.7
Cc1ccc(-c2cc(C(=O)Nc3cc(C)ccc3O)no2)cc1,·,10,-0.4,0.67,-1.9,4.0,1.2
CC(OC(=O)C1CCN(S(=O)(=O)c2ccccc2C(F)(F)F)CC1)C(=O)N(C)Cc1ccccc1 (stereo unspecified),·,-6,-0.8,0.7,0.3,2.2,6.9
Cc1nc(N2CCC3(CC2)OCCO3)c2nnn(Cc3ccccc3F)c2n1,-1%,-3,-4.6,0.7,0.3,0.9,-0.9
CCNC(=S)N/N=C1\CCCCc2ccccc21,-1%,-29,1.4,·,-0.1,1.7,·
CCS(=O)(=O)N1CCCC(C(=O)NC2CCCCC2)C1 (stereo unspecified),-1%,1,1.8,0.75,-0.1,-3.2,0.3
CN(C)c1ccc(/C=N/NC(=O)c2nnn(-c3nonc3N)c2CN2CCCCCC2)cc1,·,5,6.3,·,-0.2,2.3,·
COc1ccc(NC(=O)CC2C(=O)N(Cc3ccccc3)C(=S)N2CCN2CCOCC2)cc1 (stereo unspecified),-2%,2,0.5,0.7,-0.5,-0.2,2.5
CCc1ccc(OCC(=O)NCCc2ccc3c(c2)OCCO3)cc1,-7%,7,-3.4,0.68,-0.5,2.7,5.0
COc1ccc(C(C#N)c2nc3ccccc3nc2Cl)cc1 (stereo unspecified),-10%,5,3.7,0.69,-0.6,5.3,1.2
O=c1cc2c(nn1Cc1c(Cl)cccc1Cl)-c1ccccc1CC2,-5%,-4,-7.0,0.71,0.1,-3.3,4.8
CN1CCC(=NNC(=O)C(=O)Nc2cccc(Br)c2)CC1,?,1,31*,0.67,-0.5,-1.9,1.5
CCCN(CCC)CCCNC(=O)c1cc2c(=O)n(CC)c3ccccc3c2s1,-5%,13,2.4,·,0.6,-2.5,·
CCOC(=O)C1=NNC2C(=O)N(Cc3ccccc3)C(=O)C12 (stereo unspecified),·,0,3.2,0.66,0.5,0.1,-1.3
Cc1cc(F)ccc1NC(=O)C1CCN(C(=O)Nc2ccccc2)CC1,1%,-2,-1.4,0.68,-0.8,-4.4,2.0
O=C(Nc1ccc(NC(=O)C2CC2)nc1)c1cnccn1,12%,1,-0.6,0.67,-0.9,-0.2,4.2
O=C(CSc1nnc(Cc2cc(=O)[nH]c(=O)[nH]2)n1-c1ccc(Cl)cc1)NCC1CCCO1 (stereo unspecified),?,22,-11,0.64,-0.1,1.0,1.4
